High-throughput results as filed in PubChem BioAssay.
Cruzain noTriton: inhibitors of Trypanosoma cruzi cruzain without detergent; purified cruzain, Z-FR-AMC fluorescence, no detergent; Potency, µM, without a hit: max response, negative = inhibition, hits mostly inhibitors; 2.3% of 200,000 active;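 note: plate controls were enzyme without inhibitor for no effect and buffer without enzyme for full effect; nearly all actives have a fitted effect of over 40% in size; top concentration of the series not given in the record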
Target sequence (P25779 123-467 limits assumed): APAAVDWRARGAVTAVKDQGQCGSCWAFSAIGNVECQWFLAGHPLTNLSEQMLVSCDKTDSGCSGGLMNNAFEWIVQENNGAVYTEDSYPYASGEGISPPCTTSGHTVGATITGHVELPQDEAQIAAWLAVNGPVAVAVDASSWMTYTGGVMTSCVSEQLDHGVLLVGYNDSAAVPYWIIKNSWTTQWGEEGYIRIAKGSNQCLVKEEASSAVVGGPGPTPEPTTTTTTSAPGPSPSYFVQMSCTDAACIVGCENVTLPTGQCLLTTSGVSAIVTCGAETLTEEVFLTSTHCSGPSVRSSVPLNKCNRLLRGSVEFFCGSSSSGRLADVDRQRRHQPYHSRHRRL
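Purified cruzain at 1.5 nM, pre-incubated 15 min with compound at room temperature in 100 mM sodium acetate pH 5.5, 5 mM DTT, 0.00005% Triton X-100. Reaction started with 2 uM Z-FR-AMC; AMC fluorescence increase over 60 s gives rate.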
SARS PLpro yeast: inhibitors of SARS-CoV papain-like protease in yeast; 0.19% of 330,000 active; Potency, µM (highest dose often 32.9 µM), without a hit: top-dose activity, positive = growth rescue; S. cerevisiae expressing SARS-CoV PLpro, growth rescue; control for the full effect not named in the record; active means well fitted rising curve with a large enough effect; inconclusive means small, poorly fitted or top-dose-only effect; inactive means no such curve, though single readings can be large or run the other way; note: 0% is about no effect; nearly all actives have a fitted effect of over 55% in size; growth read by luminescence after 48 h
2A StopGo: FMDV 2A StopGo reporter, luciferase signal; human cells with a luciferase reporter of 2A StopGo recoding; control for the full effect not named in the record; Potency, µM (highest dose often 57.9 µM), for the others: at the top dose signal change, negative = less light; 1.2% of 410,000 active; AID 1159524; active = well fitted falling curve with a large enough effect; inconclusive = small, poorly fitted or top-dose-only effect; inactive = no such curve, though single readings can be large or run the other way; tested in HEK293T cells; note: % is set by controls: 0 for no effect and ±100 for the full control effect; nearly all actives have a fitted effect of over 45% in size; luciferase light after 4 h
NS1 function inh: influenza NS1 inhibition; AID 2326; Potency, µM (series often up to 46.1 µM), for inactives: top-dose activity, positive = more growth; S. cerevisiae slowed by influenza A NS1, growth recovery by OD600; 0.4% of 270,000 active; active means well fitted rising curve with a large enough effect; inconclusive means small, poorly fitted or top-dose-only effect; inactive means no such curve, though single readings can be large or run the other way; note: nearly all actives have a fitted effect of over 50% in size
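In this qHTS, NS1 from influenza A is expressed in budding yeast, where it slows growth. Cells are switched from glucose to 2% galactose medium (pH 6.0, -URA), treated with compound, and growth recovery is read at OD600.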
RE007 growth inh: less growth of the S. pombe RE007 Vpr strain | S. pombe RE007 Vpr strain, BacTiter-Glo ATP luminescence, 24 h; control for the full effect not named in the record | Potency, µM (top dose mostly 92.2 µM), inactives show at the highest dose activity change, negative = less growth | 0.21% of 360,000 active; active = well fitted falling curve with a large enough effect; inconclusive = small, poorly fitted or top-dose-only effect; inactive = no such curve, though single readings can be large or run the other way;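 note: % is set by controls: 0 for no effect and ±100 for the full control effect; nearly all actives have a fitted effect of over 50% in size; the assay follows cell death caused by Vpr and the record does not say whether a fall means rescue or toxicity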
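Fission yeast strain RE007, carrying one chromosomally integrated HIV-1 vpr copy, was seeded at OD 0.01 in PMG+AL medium with 23 nL pinned compound. After 24 h at 30 °C and 99% humidity, viability was read by BacTiter-Glo luminescence.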
Marburg entry inh: Marburg virus entry inhibition; Marburg virus pseudotyped entry inhibition, cell reporter; control for the full effect not named in the record; about a third of the inactives were read at about 46 µM; 1.8% of 300,000 active; Potency, µM (series often up to 37.8 µM), for the others: at the top dose activity change, negative = inhibition, actives largely listed as inhibitors; active = well fitted inhibition curve with a large enough effect; inconclusive = small, poorly fitted or top-dose-only effect, or effect the other way; inactive = flat fitted curve, though single readings scatter; tested in HEK293 cells; about a fifth of its hits are not listed in these tables; note: % is set by controls: 0 for no effect and ±100 for the full control effect; luciferase read-out
Cruzain Triton: inhibitors of Trypanosoma cruzi cruzain with detergent | AID 1478 | Potency, µM, without a hit: max response, negative = inhibition, hits mostly inhibitors | 0.43% of 200,000 active | purified cruzain, Z-FR-AMC fluorescence, 0.01% Triton | P25779;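 note: plate controls were neutral wells for no effect and buffer without enzyme for full effect; nearly all actives have a fitted effect of over 40% in size; top concentration of the series not given in the record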
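Detergent-containing run (0.01% Triton X-100) in acetate buffer pH 5.5 with 5 mM DTT: enzyme at 1.5 nM final, 15 min compound preincubation at room temperature, then 2 uM Z-FR-AMC substrate. Activity taken as 60 s fluorescence increase at 360/450 nm.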
Lassa entry inh: Lassa virus entry inhibition; 1.2% of 300,000 active; Potency, µM (highest dose often 37.9 µM), for inactives: at the top dose activity change, negative = inhibition, actives largely listed as inhibitors; Lassa virus pseudotype entry inhibition, cell reporter; control for the full effect not named in the record; active means well fitted inhibition curve with a large enough effect; inconclusive means small, poorly fitted or top-dose-only effect, or effect the other way; inactive means flat fitted curve, though single readings scatter; tested in HEK293 cells; note: % is set by controls: 0 for no effect and ±100 for the full control effect; nearly all actives have a fitted effect of over 50% in size; luciferase read-out
Starred values were filed as active, the others as inactive; ? = inconclusive; / = not tested or not shown; & = joins results of further samples; [ ] = remark or other dose. Unless noted, calls come from the whole dose curve; as a rule, active = well fitted curve in the direction sought with a large enough effect; inconclusive = small, poorly fitted or top-dose-only effect, or another doubt; inactive = no such curve, though single readings can be large; an effect the other way counts as inactive or inconclusive. Potency is the fitted concentration of half-maximal effect.

SMILES	Cruzain noTriton	SARS PLpro yeast	2A StopGo	NS1 function inh	RE007 growth inh	Marburg entry inh	Cruzain Triton	Lassa entry inh
O=C(Nc1cc(C(=O)N2CCOCC2)ccc1N1CCCC1)c1cccs1	-8%	7%	/	0%	-13%	4%	-4.2%	-2%
CN(C(=O)Nc1ccc(C(C)(C)C)cc1)C1CCCCC1	/	0%	0%	8%	-24%	9%[46.1 µM]	/	?
Cc1coc2cc3oc(=O)c(CCC(=O)NCc4ccccc4Cl)c(C)c3cc12	?	/	13%	/	/	7%[46.1 µM]	-7.3%	22%[46.1 µM]
CCc1c(C)sc(NC(=O)c2cc(C3CC3)on2)c1C#N	-12%	-10%	4%	-9%	-13%	/	-5.2%	/
c1ccc(-c2nnc(CN3CCN(c4ccccn4)CC3)o2)cc1	0%	/	2%	/	/	16%[46.1 µM]	-2.4%	0%[46.1 µM]
CCOc1c2ccc(C(=O)NCc3ccco3)cc2nn1CC	-2%	?	2%	3%	9%	/	2.0%	/
CC(C)n1cc(/C=C2\NC(=O)N(c3cccc(Cl)c3)C2=O)c2ccccc21	25µM*	-2%	-15%	3%	-7%	?	-0.5%	-22%
COc1cccc(CC2(CO)CCCN(Cc3ccc(OC)c(C)c3OC)C2)c1 (stereo not drawn)	/	-2%	?	-2%	-12%	/	/	/
COc1cc2c(cc1OC)CN(Cc1cc(=O)n3cc(C)ccc3n1)CC2	-6%	-4%	3%	-15%	9%	7%	-5.5%	-1%
CN(CCCNC(=O)C1CCC(=O)N1Cc1ccc(F)cc1)c1ccccc1 (stereo not drawn)	0%	3%	-21%	-11%	6%	/	-3.1%	/
CC(C)c1ccc(OCC(=O)N2CCN(c3ccccn3)CC2)c(Br)c1	/	-1%	7%	-105%	-6%	-4%	/	-1%
CN(C)C=Nc1nc2ccccc2nc1N1CCCC1	/	3%	6%	1%	?	1%[46.1 µM]	/	/
CC(C)C(NC(=O)OC(C)(C)C)C(=O)N1CCCC1C(=O)NC(Cc1ccccc1)C(N)=O (stereo not drawn)	10%	1%	-6%	-6%	10%	-7%	3.9%	6%
Cc1cc(C)n(-c2nc(C)c(C)c(=O)n2CC(=O)Nc2ccc(Cl)c(Cl)c2)n1	-5%	/	0%	/	/	/	-2.7%	6%[46.1 µM]
Clc1cccc(-c2csc(-c3nc(-c4ccc(Br)s4)cs3)n2)c1	12%	/	-13%	/	/	-27%[46.1 µM]	-2.3%	?
O=C(CNC(=O)c1cccc(F)c1)OCC(=O)N1CCCCC1	?	21%	40%[activator]	-1%	12%	/	25µM*	/
O=C(Nc1ccccc1C(F)(F)F)c1noc2c1CCCCC2	-7%	/	1%	/	/	?	-5.3%	23%[46.1 µM]
O=C(NCCN1CCOCC1)C1CCC(=O)N1Cc1ccc(F)cc1 (stereo not drawn)	8%	-6%	17%	2%	13%	10%	5.7%	7%
CC(=O)Nc1ccc(C(=O)COC(=O)CCN2C(=O)C3CC=CCC3C2=O)cc1 (stereo not drawn)	/	15%	40%[activator]	13%	-15%	/	/	/
Cc1cc(N2CCCCC2)n2ncc(-c3ccc(Cl)cc3)c2n1	-7%	11%	9%	-90%	11%	?	-24%	?
CCc1cc(C(=O)NCc2ccc(F)cc2)no1	-3%	/	36%[activator]	/	/	7%[46.1 µM]	-1.7%	2%[46.1 µM]
COc1ccc(C(=O)C(=NNc2ccccc2)c2ccc(OC)cc2)cc1	/	/	-14%	/	5%	?	/	-20%[46.1 µM]
O=C(CCCn1c(=S)[nH]c2ccccc2c1=O)N1CCN(c2cccc(Cl)c2)CC1	?	4%	-25%	-2%	1%[3.69 µM]	-25%	3.1%	-8%
Cc1ccc(CCCNC(=O)C2CCC(=O)N(Cc3cccc(F)c3)C2)cc1 (stereo not drawn)	/	-1%	-4%	0%	6%	4%[46.1 µM]	/	?
CCN(CC)S(=O)(=O)c1ccc2oc(C(=O)N3CCOCC3)c(C)c2c1	?	-1%	0%	-7%	12%	0%&0%	1.5%	-15%
COc1ccc(S(=O)(=O)N2CCC(C(=O)NCc3ccco3)CC2)cc1	-1%	6%	-1%	-3%	23%	-8%	2.3%	1%
O=S(=O)(NCCNc1nccc(C(F)(F)F)n1)c1ccccc1	/	-4%	20%	-3%	-1%	?	/	-2%
CC(C)CN(C(=O)COC(=O)c1ccc2ccccc2n1)C1CCS(=O)(=O)C1 (stereo not drawn)	/	-1%	-4%	/	25%	?	/	-15%
c1ccc(-c2n[nH]c3c2CCC3)cc1	6%	-4%	0%	-64%	-5%	?	1.1%	-2%
COc1cccc(CNC(=O)c2ccc3oc(=O)n(Cc4ccccc4)c3c2)c1	4%	/	-29%	/	/	/	-1.5%	?
Cc1cc(C)c2c(n1)SCC(=O)N2CC(=O)Nc1cccc(Cl)c1	/	-1%	0%	-5%	10%	/	/	/
CCOC(=O)c1cc(C)sc1NC(=O)CN1CCN(C(=O)c2ccco2)CC1	/	1%	?	12%	5%	?	/	?
CN(c1ccc(C(=O)N/N=C/c2cccc([N+](=O)[O-])c2)cc1)S(=O)(=O)c1ccccc1	/	-3%	-15%	0%	-14%	?	/	?
CCOC(=O)c1c(C)c2c(=O)[nH]cnc2n1-c1ccccc1	/	0%	-27%	0%	-2%	/	/	/
COc1cccc(N(C(=O)Cn2nnc(-c3ccc(C)cc3)n2)C(C(=O)NC(C)(C)C)c2c[nH]c3ccccc23)c1 (stereo not drawn)	-11%	-1%	12%	?	1%	?	-2.8%	?
CCOC(=O)C(C)N1N=C(/C=C/c2ccc(OC)cc2)CCC1=O (stereo not drawn)	-8%	3%	0%	-7%	-12%	5%[46.1 µM]	-2.4%	4%
Cc1cc(C)c2c(n1)nn1c(N3CCN(c4ccccn4)CC3)cc(C)nc21	3%	1%	/	-5%	/	0%	0.2%	/
COc1ccc(Cl)cc1NC(=O)CSc1nc(=O)[nH]c2c1CCCC2	-2%	/	-24%	/	/	/	-0.2%	0%[46.1 µM]
CCN(Cc1ccccc1)C(=O)CCNS(=O)(=O)c1cc(Br)cnc1N	/	11%	28%	2%	6%	-22%[46.1 µM]	/	-16%[46.1 µM]
CCOCCCNC(=S)N1CCN(c2nc(-c3ccccc3)cs2)CC1	/	-1%	?	6%	-6%	/	/	/
Cc1ccccc1C(=O)NNS(=O)(=O)c1cccc([N+](=O)[O-])c1	/	2%	-4%	3%	-12%	19%[46.1 µM]	/	-9%[46.1 µM]
CCOc1ccc(NC(=O)C2CCN(S(=O)(=O)c3ccc4c(c3)CC(C)N4C(C)=O)CC2)cc1 (stereo not drawn)	/	1%	?	5%	2%	-15%[46.1 µM]	/	-25%[46.1 µM]
Cc1cc2c(cc1C)[n+](C)cn2CC(O)COCc1ccccc1 (stereo not drawn)	1%	0%	1%	2%	9%	5%	0.8%	0%
CCOC(=O)C1CCN(C(=O)c2ccc3snnc3c2)CC1	-9%	-10%	17%	2%	-6%	5%&5%	0.1%	7%
CN(C)CCn1c2c(c(SCC(=O)N3CCc4ccccc43)nc1=O)CCCC2	/	-1%	7%	/	-13%	-29%	/	1%
CN(C)c1ccnc(Nc2ccccc2)c1C#N	/	0%	-8%	6%	-3%	1%[46.1 µM]	/	29%[46.1 µM]
COc1ccc(OC)c(CCNC(=O)CCc2nnc3ccc(N4CCOCC4)nn23)c1	/	2%	-6%	13%	-4%	/	/	/
c1ncn(C23CC4CC(CC(C4)C2)C3)n1	0%	21%	-11%	12%	-5%	-6%	-0.1%	-2%
O=C(CN1CCOCC1)Nc1ccc(C2CCCCC2)cc1	-1%	-13%	68%[activator]	-75%	19%	5%	0.6%	?
COc1ccc(CNC(=O)CSc2nc3ccc(C)cc3[nH]2)cc1OC	/	4%	-12%	2%	-20%	15%[46.1 µM]	/	/
CN(CC(=O)Nc1ccc(Cl)c(C(F)(F)F)c1)C(=O)C1(c2ccccc2)CC1	/	-5%	-22%	/	24%	?	/	-2%
Nc1nc(-c2ccccc2)c(CCCOc2ccc(NC(=O)CBr)cc2)c(=O)[nH]1	/	/	0%	/	17%	-11%	/	-15%
c1cncc(-c2nnc3n2C2(CCCCC2)Cc2ccccc2-3)c1	2%	-5%	/	1%	-9%	5%	4.8%	-10%
C#CCOc1ccc(-c2nnc(Nc3ccc(NC(C)=O)cc3)c3ccccc23)cc1	-3%	/	0%	/	/	?	-7.4%	?
COc1ccc(C(C)=O)cc1COC(=O)C1CC(=O)N(Cc2ccccc2)C1 (stereo not drawn)	/	-5%	-16%	-5%	1%	-2%	/	-5%
Cc1cc(=O)oc2cc(OCC(=O)N3CCC(C(=O)O)(c4ccccc4)CC3)ccc12	/	10%	-14%	23%	-3%	/	/	/
COc1ccc(OCCOCCN2CCOCC2)cc1	-10%	9%	/	0%	-2%	3%	2.6%	5%
COc1ccnc2c1c(=O)n(Cc1cccc(F)c1)c(=O)n2C	/	-8%	-23%	-8%	-4%	/	/	/
Nc1nonc1C(=O)NCCN=Cc1ccccc1O	-3%	-6%	-20%	-12%	7%	4%	-0.4%	7%
CCOC(=O)C1=C(C)N=c2s/c(=C\c3ccncc3)c(=O)n2C1c1ccc2c(c1)OCO2 (stereo not drawn)	-27%	1%	25µM*	-112%	6%	-14%&-14%	?	-14%

Next records
SMILES	Cruzain noTriton	SARS PLpro yeast	2A StopGo	NS1 function inh	RE007 growth inh	Marburg entry inh	Cruzain Triton	Lassa entry inh
CCOc1ccccc1C(=O)NC(C(=O)Nc1cccnc1)C(C)C (stereo not drawn)	/	-6%	-13%	2%	-17%	/	/	/
Cc1nnc(NC(=O)CSc2nc3[nH]ncc3c(=O)[nH]2)s1	/	1%	-11%	5%	-11%	/	/	/
Cn1cc(C(=O)Nc2ccc(Cl)cc2)c(C(F)(F)F)n1	/	10%	10%	6%	2%	/	/	/
C=CCN(c1ccccc1)S(=O)(=O)c1ccc2c(c1)NC(=O)C(C)S2 (stereo not drawn)	/	32%	-25%	13%	3%	/	/	/
COc1ccc(S(N)(=O)=O)cc1C(=O)OCCCOC(=O)c1cc(S(N)(=O)=O)ccc1OC	/	5%	0%	12%	3%	24%[46.1 µM]	/	-18%[46.1 µM]
